PMP22 txn – modulators of PMP22 gene transcription in S16 Schwann cells; S16 Pmp22-F2sN Schwann cells (luciferase reporters placed in the Pmp22 gene), FLuc/NLuc coincidence luminescence, 24 h; Potency, µM (titrated, usually from 57.5 µM), for the others: top-dose activity change, negative = inhibition, hits mostly inhibitors; 43,000 compounds, 2% hits; AID 1508649; active = clear falling dose curves in both reporters; inconclusive = both reporters move, but less clearly or upward; inactive = either reporter flat; the % is the NLuc reporter signal; further: on the % scale 0 is the no-effect control and ±100 the full control effect; some results filed as inactive show a strong effect at the top dose
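Reporter cells (S16 Pmp22-F2sN, 500–1,000 per well) exposed to compounds for 24 h, 37C, 5% CO2; lysis with FLuc read after 10 min, then Stop&Glo and NLuc read after 10 min.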
HTT promoter inh – inhibitors of huntingtin promoter activity. HEK293 HTT promoter firefly luciferase reporter (activity 0% = vehicle and -100% = no light), 24 h. Potency, µM (doses to about 57.5 µM), for inactives: at the highest dose activity change, negative = inhibition, actives largely listed as inhibitors. 48,000 compounds, 0.93% hits; active means well fitted inhibition curve with a large enough effect; inconclusive means small, poorly fitted or top-dose-only effect; inactive means no such curve, though single readings can be large or run the other way; further: nearly all actives have a fitted effect of over 50% in size
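HEK293 luciferase promoter-reporter cells (2,500/well) plated 24 h, then compounds added at up to 57.5 uM final for 24 h at 37 °C. Firefly luminescence by Dual-Glo, normalized to vehicle (0%) and zero RLU (-100%).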
Active calls of the source: *; ? = inconclusive; [ ] = another dose, or the depositor's remark. Potency means the concentration at half of the fitted maximal effect.

SMILES	PMP22 txn	HTT promoter inh
Cc1cc(C)c(NC(=O)C(C)n2c(=O)cc(C)c3c(C)nn(-c4ccccc4)c32)c(C)c1 (stereo not given)	?	6%
Cc1ccc(S(=O)(=O)NCc2nc3nc(C)cc(C)n3n2)c(C)c1	-10%	0%
Cc1ccc(-c2nc(CS(=O)CC(=O)NCCc3ccc(Cl)cc3)c(C)o2)cc1 (stereo not given)	3%	-26%
COc1ccc(CCNC(=O)c2ccc3c(c2)N(Cc2ccc(F)cc2)C(=O)c2ccccc2S3(=O)=O)cc1OC	-15%	9%
Cc1ccc(Cl)cc1NC(=O)N1CCC(CN2CCc3ccccc3C2)CC1	3%	-28%
Cc1nc2ncnn2c(C)c1CCC(=O)NCc1ccccc1Cl	-2%	-4%
CCOC(=O)c1c(NC(=O)COc2ccccc2)sc(C(C)=O)c1C	-8%	-8%
CCOC(=O)c1cc2c(=O)n3ccccc3nc2n(CCCOC)c1=NC(=O)c1cc2ccccc2o1	-16%	-5%
CC(=O)Nc1ccc(NC(=O)c2ccc3c(c2)N(Cc2cccc(Cl)c2)C(=O)c2ccccc2S3=O)cc1 (stereo not given)	-17%	?
CCc1ccc(-n2c(=O)c3c4c(sc3n(CC(=O)NCCCOC)c2=O)CCCC4)cc1	?	-3%
Cc1ccc(NC(=O)CN2C(=O)COc3ccc(S(=O)(=O)Nc4ccccc4)cc32)c(C)c1	-12%	-5%
COc1ccc(-c2nc(Cn3c(SCc4ccc(C)cc4)nc4cccnc43)c(C)o2)cc1OC	?	?
Cc1ccc(-n2c(=O)c3ccc(C(=O)NCc4ccccc4Cl)cc3n(CC(=O)Nc3cccc(Cl)c3)c2=O)cc1	?	-12%
Cc1ccc(OCC(=O)Nc2ccc3nc(SCc4ccccc4)sc3c2)cc1	-40%	-6%
CCCCN(CCCC)C(=O)C1CCN(S(=O)(=O)c2cccc3nsnc23)CC1	?	-29%
Cc1ccc(NS(=O)(=O)c2ccc3c(c2)n(C)c(=O)n3C)cc1C	?	?
CCOc1ccccc1CNC(=O)c1sc2ncccc2c1-n1cccc1	?	?
COc1ccc(Cc2c(C)nn(-c3nc(C)c(C(=O)Nc4ccc(C)cc4C)s3)c2C)cc1	?	-6%
Cc1ccc(Cn2c(=O)n(Cc3ccccc3Cl)c(=O)c3ccccc32)cc1	-16%	-11%
Cc1cccc(N(Cc2cc3ccccc3[nH]c2=O)C(=O)c2cccc(Cl)c2)c1	11%	?
CCC(=O)N1CCc2cc(S(=O)(=O)CCC(=O)N3CCN(c4ccccc4F)CC3)ccc21	?	-3%
Cc1ccc(Cl)cc1NC(=O)c1sc2nc(C)c(C)c(C)c2c1N	-9%	20%
CCc1ccccc1NC(=O)c1cc2sc(Cl)cc2n1CC	-13%	?
Cc1cccc(CCNC(=O)c2cnc3c(C)cccn3c2=O)c1	5%	38%[activator]
COc1cc2ccccc2cc1C(=O)Nc1ccc2oc(-c3ccc(F)cc3Cl)nc2c1	-4%	23%
CCc1cc2c(cc3c(=O)n(CC(=O)NCCOC)nc(CC)n32)s1	-11%	-3%
Cc1ccc(CN2CCCN(CC(=O)Nc3ccc(C)cc3C)S2(=O)=O)cc1	-34%	-3%
Cc1nn2c(=O)cc(COC(=O)c3ccc(NC(=O)c4cccs4)cc3)nc2s1	?	?
Cc1ccc2sc(N(Cc3cccnc3)C(=O)C3COc4ccccc4O3)nc2c1C (stereo not given)	-68%	-4%
COc1ccc(CCNc2nc3ccc(C)cc3n3cnnc23)cc1OC	-124%	-2%
COc1ccc(C2Nc3ccccc3-c3nnc(SC)nc3O2)cc1C (stereo not given)	20%	-8%
CCCCn1c(=O)nc2n(-c3ccc(F)cc3)c3ccccc3cc-2c1=O	-9%	-12%
O=C(Nc1ccc2c(c1)N(C1CCCC1)C(=O)c1ccccc1S2)c1ccccc1F	-6%	?
Cc1cn(C)c(CC(=O)Nc2ccc(F)cc2Cl)c1C(=O)O	32%	-17%
CCCNc1ncnc2c1c(-c1ccccc1)cn2-c1ccccc1	-24%	-27%
Cn1c(=O)oc2cc(S(=O)(=O)N3CCCC(C(=O)N4CCN(c5ccccc5F)CC4)C3)ccc21 (stereo not given)	?	-24%

Gathered by group: the entries above containing an aryl thioether with sulfur outside any ring
SMILES	PMP22 txn	HTT promoter inh
COc1ccc(-c2nc(Cn3c(SCc4ccc(C)cc4)nc4cccnc43)c(C)o2)cc1OC	?	?
Cc1ccc(OCC(=O)Nc2ccc3nc(SCc4ccccc4)sc3c2)cc1	-40%	-6%
COc1ccc(C2Nc3ccccc3-c3nnc(SC)nc3O2)cc1C (stereo not given)	20%	-8%

Rewritten as labelled records: entries from further up
SMILES: Cc1nn2c(=O)cc(COC(=O)c3ccc(NC(=O)c4cccs4)cc3)nc2s1
  PMP22 txn: ?
  HTT promoter inh: ?

SMILES: Cc1ccc2sc(N(Cc3cccnc3)C(=O)C3COc4ccccc4O3)nc2c1C (stereo not given)
  PMP22 txn: -68%
  HTT promoter inh: -4%

SMILES: COc1ccc(CCNc2nc3ccc(C)cc3n3cnnc23)cc1OC
  PMP22 txn: -124%
  HTT promoter inh: -2%

SMILES: COc1ccc(C2Nc3ccccc3-c3nnc(SC)nc3O2)cc1C (stereo not given)
  PMP22 txn: 20%
  HTT promoter inh: -8%

Next part:
SMILES	PMP22 txn	HTT promoter inh
COc1cccc(CNCc2c(C(=O)O)n(Cc3ccc(C)cc3)c3cc(C)ccc23)c1OC	?	-20%
CSc1nc(-c2ccc(F)cc2)nc2c1Cc1c(CO)cnc(C)c1O2	-20%	-12%
Cc1ccccc1CN1C(=O)c2ccccc2Sc2ccc(C(=O)NCc3ccccc3)cc21	6%	-31%
COc1cccc(/C=C/c2nc(C#N)c(N3CCCCC3)o2)c1	-54%	7%
CC(C)CN(CCNC(=O)c1cc(=O)[nH]c2ccc(S(=O)(=O)N3CCCCCC3)cc12)CC(C)C	-1%	-18%
COc1ccc(-n2ncc(C(=O)Nc3ccc4c(c3)OCCO4)c2C2CCN(C(=O)OC(C)(C)C)CC2)cc1	?	?
Cc1cccc(-c2nn3c(=O)cc(CN4CCN(S(=O)(=O)c5ccc(Cl)cc5)CC4)nc3s2)c1	?	?
CCOC(=O)c1cc(S(=O)(=O)N2CCN(c3ccc(OC)cc3)CC2)[nH]n1	56%	-31%
Cc1cc2c(cc1S(=O)(=O)N(CCN(C)C)Cc1ccccc1)OCC(=O)N2	-19%	5%
Cc1cccc(NC(=O)c2cc3c(=O)n4ccccc4nc3n2C)c1C	-42%	0%
CCc1ccc(S(=O)(=O)c2cn(CC(=O)Nc3ccc(C)cc3)c3ccccc3c2=O)cc1	38%	-23%
Cc1ccccc1NC(=O)c1c(C)oc2ccc(O)c(CN(C)Cc3ccccc3)c12	?	?
Cc1cc2c(cc3c(SCC(=O)Nc4ccc(Cl)cc4F)nncn32)o1	1%	-6%
Cc1cc(C)c(NC(=O)CSc2nc3ccncc3[nH]2)c(C)c1	-45%	-29%
Cc1cc(C)c2c(NC(=O)c3ccccc3Cl)c(C(=O)Nc3ccc(C)c(C)c3)sc2n1	-25%	40%[activator]
CCCCSCCCNC(=O)C1CCN(Cc2nc(-c3cccc(Br)c3)oc2C)CC1	?	-2%
CC(=O)c1cc(-c2ccccc2)n(CCC(=O)Nc2nc3c(C)cccc3s2)c1C	?	-16%
Cc1ccc(NC(=O)CS(=O)(=O)c2nc(-c3ccc(C)cc3)cn2-c2ccc(C)cc2)cc1	-87%	-14%
CCn1nc(-c2ccccc2)c(-c2ccccc2)c(C(=O)OCCOC)c1=O	3%	-13%
CCc1ccc(NC(=O)CN2C(=O)CCSc3ccc(S(=O)(=O)N4CCCC4)cc32)cc1	?	-30%
CCOC(=O)c1c(S(=O)(=O)NCC(=O)Nc2cccc(CC)c2)c(C)n(C)c1C	2%	-5%
Cc1ccccc1-c1nnc(CN2CCN(c3cc(Cl)ccc3C)CC2)o1	-32%	-16%
Cc1cc(C)c(NC(=O)CSc2ccc(-c3sc(-c4ccccc4)nc3C)nn2)c(C)c1	-1%	-9%
CCOc1cc2c(cc1OCC)C(CC(=O)O)N(C(=O)Nc1ccc(Br)c(C)c1)CC2 (stereo not given)	?	8%
O=c1[nH]c(C2CCCN(S(=O)(=O)c3ccccc3Cl)C2)nc2c1nnn2Cc1ccc(OC(F)(F)F)cc1 (stereo not given)	-19%	-15%
CCn1cc(C(=O)OCC(=O)Nc2cccc(C(C)=O)c2)c(=O)c2ccc(C)nc21	-4%	-13%
COc1ccc(NC(=O)CN2C(=O)C(c3ccc(C)cc3)=NC23CCCCCC3)cc1Cl	?	-30%
CC(C)CCOc1ccc(Cn2c(=O)sc3ccccc32)cc1	-7%	-15%
CC(C)(C)c1ccc(NC(=O)C2CCCN(c3cnccn3)C2)cc1 (stereo not given)	?	-8%
CCOC(=O)C1CCC(CN(Cc2ccc(OC)cc2)S(=O)(=O)c2ccc(F)c(C(=O)Nc3cc(Cl)ccc3OC)c2)CC1 (stereo not given)	?	7%
COc1ccc(CNC(=O)c2cc3c(-c4ccccc4F)nn(C)c3s2)c(OC)c1	?	?
Cc1ccc(NC(=O)Nc2nnc(SCC(=O)N3CCCCC3)s2)cc1	?	-15%
COc1ccc(C2Nc3ccccc3-c3cc(C)nn32)cc1OC (stereo not given)	7%	-9%
COc1ccc(CNC(=O)c2cccn2-c2nnc(N3CCCCC3)s2)c(OC)c1	?	-23%
COc1cccc(Nc2sc(C(=O)c3ccc(Cl)cc3)c(N)c2C(=O)NCc2ccc(C)cc2)c1	8.9µM*	?
Cc1nc(-c2ccccc2)sc1-c1ccc(SCC(=O)NCc2ccc(F)cc2)nn1	?	-1%
Cc1ccc(C2=CC(c3ccc(Cl)cc3)n3nc(-c4ccc(C)cc4)nc3N2)cc1 (stereo not given)	?	?
CCOC(=O)C1CCCN(C(=O)Cn2ncn3c(cc4sc(CC)cc43)c2=O)C1 (stereo not given)	-11%	-17%
CCCCNC(=O)C1CCC(CNS(=O)(=O)c2ccc(NC(C)=O)cc2)CC1 (stereo not given)	-23%	21%
O=C(NCc1ccccc1Cl)c1ccc2c(c1)ncn2-c1cccc(F)c1	-9%	0%
O=c1c2c(-c3ccccc3)ccnc2[nH]n1-c1ccccc1	13%	41%[activator]
CCN(C(=O)Cn1c(=O)n(Cc2ccccc2)c(=O)c2c1c1cc(OC)ccc1n2C)c1ccccc1	8%	-13%
COc1ccc(NC(=O)Cn2c(=O)n(-c3ccccc3)c(=O)c3c4c(sc32)CCCC4)c(OC)c1	21%	-1%
CC(=O)N1CCN(c2csc3ccc(Br)cc3c2=O)CC1	-1%	20%
Cc1ccc(CCNC(=O)c2ccc(CSc3nc4ccncc4n3Cc3ccc(F)cc3)cc2)cc1	-16%	?
O=C(Cn1nc2c(cc1=O)CCCC2)NCc1ccccc1Cl	2%	50%[activator]
CSc1nnc2c(n1)OC(c1cccc(O)c1Cl)Nc1ccccc1-2 (stereo not given)	-21%	5%
CC1CCN(S(=O)(=O)c2ccc3c(ccc(=O)n3CC(=O)NCc3ccc(Cl)cc3)c2)CC1	-26%	?

Entries of single compounds, quoted from the list. Values in the order: PMP22 txn, HTT promoter inh
Cc1ccc(CCNC(=O)c2ccc(CSc3nc4ccncc4n3Cc3ccc(F)cc3)cc2)cc1 in the list: -16%, ?
CCCCNC(=O)C1CCC(CNS(=O)(=O)c2ccc(NC(C)=O)cc2)CC1 (stereo not given) in the list: -23%, 21%
CSc1nnc2c(n1)OC(c1cccc(O)c1Cl)Nc1ccccc1-2 (stereo not given) in the list: -21%, 5%

Remaining list, next part:
SMILES	PMP22 txn	HTT promoter inh
Cc1ccc(C(=O)Nc2ccc3c(c2)N(C)C(=O)c2ccccc2S3)cc1F	?	13µM*
Cc1oc(-c2ccccc2)nc1Cn1c(SCc2cccc(C(F)(F)F)c2)nc2cccnc21	?	?
CCOc1ccccc1NC(=O)c1ccc2c(c1)CCN2S(=O)(=O)c1ccc(C)cc1	-16%	-3%
COc1cc(CNc2ccc3[nH]c(=O)[nH]c3c2)ccc1OCc1ccccc1F	-48%	-22%
Cc1ccc(-c2c(CN3CCN(c4cccc(C(F)(F)F)c4)CC3)csc2C)cc1	11%	-11%
Cn1cc(S(=O)(=O)c2ccccc2)c(=O)c2cc(F)c(N3CCN(c4ccccc4)CC3)cc21	-17%	-17%
CCOc1ccccc1Nc1sc(C(=O)c2ccccc2)c(N)c1C(=O)Nc1ccccc1	?	?
Cc1ccc2c(c1)-c1c(cnn1CC(=O)N1CCN(c3cc(Cl)ccc3C)CC1)CO2	2%	-15%
O=C(COc1ccc2oc3c(c2c1)CCCC3)Nc1ccc(Cl)cc1	-21%	-22%
N#Cc1cc2c(=O)n3ccccc3nc2n(-c2nnc(SCc3ccc(F)cc3)s2)c1=O	-15%	-6%
Cc1ccc(NC(=O)c2nc(S(C)(=O)=O)ncc2N(Cc2ccco2)Cc2cccs2)cc1C	?	?
CCCN(C(=O)Nc1cn(CC(C)C)c(=O)c2ccccc12)c1ccc(F)cc1	2%	-24%
CN(C)C(=O)c1ccc2c(c1)N(CC(=O)NCc1ccccc1Cl)C(=O)C1CCCCN21 (stereo not given)	-21%	-2%

Screening data from PubChem BioAssay.
